Screening data from PubChem.
RanGTP-Imp inh – inhibitors of RanGTP-importin-beta interaction, primary screen, biochemical, FRET, CFP-Ran, YFP-importin-beta, homogeneous; AID 2216, 2009; cell-free CFP-Ran/YFP-importin-beta FRET ratio; inhibition, % (test concentration not listed); actives 1.1% (n = 300,000);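 active = most replicates above 15%; inconclusive = exactly half above 15%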;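 note: 0% = DMSO wells and 100% = Ran loaded with GDP instead of GTP; wells of about 40 µL received 100 nL stock; the first replicate is given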
Ecoli rRNA inh – reduced GFP signal of wild-type E. coli, primary screen, bacterial rRNA inhibitor project, GFP/RFP fluorescence, OD600, single point. E. coli WT GFP vs humanized-ribosome RFP mutants, 24 h; hits give low values; DMSO median 0, no signal -100. GFP signal change (wild-type ribosome), % (no concentration beside the values). actives 1.6% (n = 350,000). AID 720706, 2013;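 active = significant combined selectivity score with lowered wild-type GFP, culture density cut under 30%, mutant RFP and density less affected; inactive = any of these conditions unmet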; note: one replicate is shown; some compounds called inactive have numbers as strong as hits
T cruzi inh – inhibitors of intracellular T. cruzi growth, primary screen, luminescence, NIH3T3 host cells | T. cruzi beta-gal in NIH3T3, 90 h | inhibition, % (test concentration not listed) | actives 1.4% (n = 300,000);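 active = mean inhibition across valid replicates above about 55%, limit read from the data; inconclusive = mean below that limit but half or more replicates reach it; inactive = mean below it, under half of replicates reach it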;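 note: signal also drops with host cell toxicity which is not excluded here; 0% = plate median of DMSO wells and 100% = zero luminescence signal; higher percent means less beta-gal luminescence so fewer parasites; stock transfer was 50 nL into about 50 µL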
ALR inh – inhibitors of human ALR sulfhydryl oxidase, primary screen, biochemical, H2O2 detection, HRP-luminol luminescence, single point; inhibition, % (concentration not given with the values); purified ALR, DTT oxidation; FAD-linked sulfhydryl oxidase ALR (Homo sapiens), P55789; actives 3.8% (n = 290,000);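 active = mean and each replicate at 75% or more; inconclusive = only one of the two met; inactive = neither met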;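 note: stock transfer was 7.5 nL into about 7.5 µL; 0% = neutral wells and 100% = wells with inactivated enzyme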
Target sequence (P55789 whole entry, looked up): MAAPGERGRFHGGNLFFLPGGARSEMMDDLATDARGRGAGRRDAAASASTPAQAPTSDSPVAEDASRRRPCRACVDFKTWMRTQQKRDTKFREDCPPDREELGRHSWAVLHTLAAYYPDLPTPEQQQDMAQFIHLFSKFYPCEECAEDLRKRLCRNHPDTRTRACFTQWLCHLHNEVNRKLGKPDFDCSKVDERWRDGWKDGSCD
MLL AF4-AF9 inh – inhibitors of AF4 peptide binding to AF9, primary screen, biochemical, AlphaScreen, biotin-AF4 peptide, FLAG-AF9, single point. inhibition, % at 10 µM. actives 0.47% (n = 350,000). Protein AF-9 (Homo sapiens), P42568;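 active = every replicate reaching a set inhibition limit, whatever the replicate mean, cut at about 25% in these data; inconclusive = mean inhibition reaches that limit but some replicates miss it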;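 note: 0% = plate neutral control median and 100% = total signal loss; the record names both 10 and 1 µM as test concentration; the first replicate is given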
Target sequence (P42568 whole entry, looked up): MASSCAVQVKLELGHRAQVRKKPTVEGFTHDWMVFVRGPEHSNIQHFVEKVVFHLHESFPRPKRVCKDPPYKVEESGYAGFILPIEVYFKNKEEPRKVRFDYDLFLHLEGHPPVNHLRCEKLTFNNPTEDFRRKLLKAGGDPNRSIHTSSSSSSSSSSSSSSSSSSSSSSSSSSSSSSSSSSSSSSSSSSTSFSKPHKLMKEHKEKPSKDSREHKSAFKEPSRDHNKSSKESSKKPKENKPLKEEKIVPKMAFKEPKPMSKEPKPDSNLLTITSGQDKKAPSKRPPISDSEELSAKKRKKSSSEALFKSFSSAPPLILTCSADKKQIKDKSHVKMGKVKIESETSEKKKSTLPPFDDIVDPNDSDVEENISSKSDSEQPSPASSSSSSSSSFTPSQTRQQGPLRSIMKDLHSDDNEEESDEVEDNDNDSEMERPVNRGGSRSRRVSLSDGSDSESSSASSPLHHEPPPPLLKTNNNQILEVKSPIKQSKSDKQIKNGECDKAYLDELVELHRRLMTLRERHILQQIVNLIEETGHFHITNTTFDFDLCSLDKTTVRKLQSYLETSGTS
FGF22 binding – binders of human FGF22 protein, primary screen, FGF22 synaptogenesis inhibitor project, biophysical, thermal shift, single point. actives 1.5% (n = 340,000). Fibroblast growth factor 22 (Homo sapiens), Q9HCT0. AID 651658, 2012. recombinant FGF22 thermal shift, SYPRO orange fluorescence; percent of sucrose octasulfate shift, DMSO zero. calls only at 9.99 µM;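 active = melting point raised past a set limit in the mean and every replicate; inconclusive = no clear call; three in four hits are not shown here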
Target sequence (Q9HCT0 whole entry, looked up): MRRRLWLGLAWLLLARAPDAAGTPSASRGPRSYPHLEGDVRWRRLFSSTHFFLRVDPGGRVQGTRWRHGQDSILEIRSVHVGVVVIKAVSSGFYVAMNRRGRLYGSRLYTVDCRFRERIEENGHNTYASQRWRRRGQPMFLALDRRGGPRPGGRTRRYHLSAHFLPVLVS
Beta apoptosis – inhibitors of cytokine-induced beta cell apoptosis, primary screen, luminescence; INS-1E cytokine-induced death, ATP luminescence, 48 h; percent of positive-control rescue, neutral wells zero; protection from apoptosis, % (no concentration beside the values); actives 0.8% (n = 300,000); AID 435005, 2010;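 active = all replicates at 75% or more, or half of them and the mean; inconclusive = half reach 75% but not the mean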;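 note: 0% = cytokine-treated negative control wells and 100% = positive control rescue; higher means more ATP so stronger rescue from cytokine killing; wells of about 40 µL received 100 nL stock; the first replicate is given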
Calb FLC – C. albicans growth inhibition with fluconazole, primary screen, CaCi-2 strain, Alamar Blue fluorescence. C. albicans CaCi-2 (fluconazole-resistant clinical isolate) + fluconazole, 48 h. AID 1979, 2009. actives 0.57% (n = 300,000). growth inhibition, % (no concentration beside the values);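 active = most replicates above 75%; inconclusive = exactly half above 75%; inactive = most below 75%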;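 note: all wells also contain fluconazole at 8 µg/ml as a sub-toxic cotreatment; 0% = median of DMSO wells and 100% = median of geldanamycin control wells; wells of about 8 µL received 7.5 nL stock; the first replicate is given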
Ecoli rRNA inh OD600 – also measured in Ecoli rRNA inh; calls as there; OD600 change, %; measured here: OD600 growth;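 optical density of the mix in the first replicate; 0 = DMSO median and -100 = no signal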
Ecoli rRNA inh RFP – second read-out of Ecoli rRNA inh, no call of its own (marks repeat the call); RFP signal change, %; measured here: RFP humanized mutant strains;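 first replicate; 0 = DMSO median and -100 = no signal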
* hit, by the source's call; i = inactive; ? = inconclusive; . = not tested or not shown. Not all compounds are listed (hit frequency here may not be typical).

SMILES	RanGTP-Imp inh	Ecoli rRNA inh	Ecoli rRNA inh OD600	Ecoli rRNA inh RFP	T cruzi inh	ALR inh	MLL AF4-AF9 inh	FGF22 binding	Beta apoptosis	Calb FLC
C/C(=N\n1c(C)nc2ccccc2c1=O)c1ccc(C)o1	2.6	12	8	-0.3	5	.	-0.1	i	-20	0
COC(=O)c1cccc(NC(=S)Nc2cccc(Cl)c2Cl)c1	-1.8	.	.	.	-11	4	.	.	-12	0
O=C(c1ccc(N2CN(C(=O)c3ccco3)c3nc4ccccc4nc32)cc1)N1CCOCC1	?	10	12	-2.3	-32	-5	-4.2	i	33	-3
COc1ccc(OCC(=O)NCCNC(=O)c2ccncc2)cc1	3.7	15	11	4.0	-4	4	-2.7	i	3	-2
Cc1ccc(S(=O)(=O)N2[C@@H](c3ccccc3)C(C(=O)O)=CC[C@H]2c2cccc(Cl)c2)cc1	.	-28	-23	-1.8	.	9	.	i	-13	.
S=C(NCCc1ccccc1)N/N=C/c1ccc(Cl)cc1	-4.4	-28*	-6.8*	-1.5*	0	-1	-0.9	i	1	-9
O=C(Cn1c(-c2cncs2)nc2ccccc21)NCCc1ccccc1	1.0	14	8	3.2	12	11	-8.6	i	.	5
CC(C)(C)c1cc(CN2CCC(O)CC2)cc(C(C)(C)C)c1O	2.2	.	.	.	8	50	.	.	-3	-6
CCc1ncc(C(O)c2cccc3ccccc23)n1C (centres undefined)	-0.5	.	.	.	-21	-5	.	.	4	-10
OC1CCN(c2ncnc3nc[nH]c23)CC1	1.4	6	14	0.7	-15	-2	2.4	i	-4	5
COc1ccccc1/C=C/c1ccc2cccc(O)c2n1	-7.2	-47	-62	-6.9	56*	0	27*	i	18	-8
O=C(O)c1cc(S(=O)(=O)N2CCN(C(c3ccccc3)c3ccccc3)CC2)ccc1Cl	-2.2	-16*	-6.2*	6.5*	-6	87*	3.0	i	-4	-14
CCOC(=O)Cc1cnc(NC(=O)CSc2nc(N)cc(N)n2)s1	0.9	-15	-2	0.5	-14	-6	0.2	i	6	34
O=C(O)c1ccc(NCc2cccs2)cc1	1.2	-2	0	2.5	-11	-3	0.9	i	.	-7
O=C(N/N=C/C=C/c1ccco1)c1ccccc1Cl	2.5	24	14	6.1	0	.	-5.4	i	2	3
COC(=O)c1cc(NC(=O)c2c(-c3ccccc3)noc2C)ccc1N1CCOCC1	-2.8	2	0	7.7	5	1	-2.5	i	-3	9
CCn1c(SCC(=O)N/N=C/c2c[nH]c3ccccc23)nnc1-c1ccc(C(C)(C)C)cc1	1.6	-40	-43	-2.4	-5	-1	5.8	i	-1	-3
CCN1C(=O)[C@H]2[C@@H](c3ccc(C)cc3)N3C(=O)N(c4ccc(C)cc4)C(=O)[C@@]3(C)[C@H]2C1=O	0.0	6	13	3.5	-9	-4	1.5	i	-4	15
CC(=O)N1c2ccc(S(=O)(=O)N3CCC(C(=O)Nc4cc(C)ccn4)CC3)cc2CC1C (centres undefined)	-0.9	-4	-12	0.1	5	-3	-13	i	-3	-1
Cc1ccc(SCC(=O)NCC2COc3ccccc3O2)cc1 (centres undefined)	.	-7	-21	-3.3	.	-3	-2.8	i	-8	.
CCS(=O)(=O)N1CCC(C(=O)NCc2ccc(F)cc2)CC1	-2.5	.	.	.	-8	-14	.	.	-2	-4
O=[N+]([O-])c1ccc(/C=N/n2cn[nH]c2=S)cc1	2.3	17	15	-3.7	-21	65	-2.8	i	-1	27
O=C(O)COc1ccc(C(=O)c2ccccc2)cc1	2.2	8	6	-4.1	12	-3	-4.6	i	-3	4
COc1cccc(-c2noc(CCC(=O)NC3CCCC3)n2)c1	-1.9	10	1	1.9	-4	-4	-1.5	i	-1	-24
CC(C)CC1Nc2ncnc(N3CCCCC3)c2N(Cc2ccccc2)C1=O (centres undefined)	1.4	.	.	.	11	-14	.	.	-11	-2
CCOc1ccc(NC(=O)c2ccccc2SC)cc1	-0.8	-1	-1	0.4	-1	-8	0.7	i	3	0
CC1CCCN(C(=O)C2CCN(CCCc3ccccc3)CC2)C1 (centres undefined)	-0.7	.	.	.	19	2	.	.	-4	-37
Cc1cc(C(=O)NNC(=O)Cc2ccc(Cl)cc2)c(C)o1	.	14	8	1.5	-16	4	0.9	i	-2	-4
Fc1ccc(COc2ccccc2CNc2nn[nH]n2)cc1	.	-7	1	-4.9	-19	19	-4.6	i	4	-17
COc1ccc(C(CNC(=O)COc2ccc(F)cc2Br)N2CCCC2)cc1 (centres undefined)	-3.1	-18	-25	2.9	35	-29	5.5	i	0	-2
COc1ccc2cc3cc(C(=O)NCCN4CCN(Cc5ccccc5)CC4)oc3nc2c1	1.0	.	.	.	64*	-2	.	.	3	13
Cc1cccc(C(=O)OCC(=O)N2CCCCCC2)c1	.	0	3	-1.5	.	-3	-7.0	i	-2	.
COc1cc(CCCN2CCNC[C@@H]2CC2CCCCC2)cc(OC)c1OC	.	0	12	6.1	.	-2	6.9	i	0	.
Cc1c(NC(=O)C2CCCN(S(=O)(=O)c3cnc[nH]3)C2)c(=O)n(-c2ccccc2)n1C (centres undefined)	0.7	2	6	-3.3	-24	-87	10.0	i	-2	3
COC(=O)C1=C(C)N(CCCC(=O)O)C(=O)NC1c1ccc(OC)cc1 (centres undefined)	-2.1	6	11	0.7	-16	1	-2.9	i	0	-13
CCCS(=O)(=O)N1CCCC(C(=O)N2CCCCC2)C1 (centres undefined)	-2.2	13	13	-0.3	3	.	-1.4	i	.	3
CCc1cccc(CC)c1NC(=O)CSc1nnc(C(C)C)n1CC	2.5	.	.	.	-7	-6	.	.	-6	-10
Cc1cc(C)n(CC(=O)NCCC2=CCCCC2)n1	0.9	4	13	-1.3	-2	4	0.6	i	.	-1
Nc1nc(NCc2ccco2)nc(NCCO)c1[N+](=O)[O-]	-0.3	12	7	-0.1	-28	.	-6.1	i	-3	39
COCCCN(C(C)=O)c1nc(-c2ccc(OC)cc2)cs1	-1.2	.	.	.	14	-13	.	.	-4	12
Cc1cccc([C@@H]2[C@@H]3C(=O)N(Cc4ccccc4)C(=O)[C@@H]3[C@]3(C)C(=O)N(c4cccc(Cl)c4)C(=O)N23)c1	1.9	-10	-13	-0.9	-8	1	1.3	i	-1	15
CC1CCC2(CC1)NC(=O)N(CC(=O)Nc1cc(S(=O)(=O)N3CCCC3)ccc1Cl)C2=O (centres undefined)	.	8	8	0.9	.	2	-1.1	i	-13	.
CS(=O)(=O)NNC(=O)Cn1nnc(-c2cc(C(F)(F)F)cc(C(F)(F)F)c2)n1	-1.4	4	-6	1.1	7	12	-1.5	i	-1	3
CCNc1nnc(-c2ccc(C)cc2)o1	-1.1	.	.	.	-5	-8	.	.	-1	10
Cn1c(SCc2cccnc2)nc2cccnc21	0.3	.	.	.	0	13	.	.	-6	7
CCC(C)[C@@H](C(=O)N1CCNCC1)n1cc(CCCCN)nn1 (some centres undefined)	0.1	7	3	-0.5	-13	6	-0.5	i	-7	-12
COc1ccc(NC(=O)C2CCCN2C(=O)NC2CCCCC2)c(OC)c1 (centres undefined)	-1.7	-1	3	-2.5	1	2	2.5	i	-2	-21
CCc1ccc(CNC(=O)C2CCCN(S(=O)(=O)N3CC(C)CC(C)C3)C2)cc1 (centres undefined)	-4.2	2	3	1.8	-6	4	-1.9	i	4	-1

Entries listed so far shown as hits in MLL AF4-AF9 inh:
SMILES	RanGTP-Imp inh	Ecoli rRNA inh	Ecoli rRNA inh OD600	Ecoli rRNA inh RFP	ALR inh	MLL AF4-AF9 inh
COc1ccccc1/C=C/c1ccc2cccc(O)c2n1	-7.2	-47	-62	-6.9	0	27*

(listing goes on)
SMILES	RanGTP-Imp inh	Ecoli rRNA inh	Ecoli rRNA inh OD600	Ecoli rRNA inh RFP	T cruzi inh	ALR inh	MLL AF4-AF9 inh	FGF22 binding	Beta apoptosis	Calb FLC
O=[N+]([O-])c1ccc2c(c1)CNc1ccccc1O2	-5.3	9	4	4.6	-12	99*	1.1	i	-5	20
Cn1c(=O)[nH]c(=O)c2c1nc(N1CCN(CCO)CC1)n2Cc1ccccc1	5.3	14	6	1.4	-6	1	-7.2	i	-8	-3
O=C(c1ccccc1)c1ccc2ccccc2n1	-1.8	.	.	.	-6	-9	.	.	4	16
CC(C)(O)CCC(C)(C)O	.	4	3	0.1	.	37	.	i	-1	.
Nc1[nH]nc2nc(NCc3ccccc3)c3c(c12)CCN(Cc1ccccc1)C3	-1.7	.	.	.	17	.	.	.	-18	-5
CN1CCN(C(=O)c2cc(Cl)cc(Cl)c2NC(=O)c2ccco2)CC1	-0.6	0	3	-2.6	-6	-8	-4.1	i	-4	-7
CCOC(=O)Cc1csc(NC(=O)c2ccco2)n1	-3.9	.	.	.	-10	-2	.	.	-2	3
C=CCn1cc(C(=O)NCCCOCC)c(=O)c2cc(S(=O)(=O)N(CC)CC)ccc21	0.7	.	.	.	6	-3	.	.	6	-1
CCOc1ccc(N(C(=O)c2ccccc2Cl)C2=NC(C)(C)CS2)cc1	3.5	-24	-21	-4.0	9	-2	-1.2	i	41	0
Cc1c(C)n(Cc2ccccc2)c2ncnc(NCCCN(C)C)c12	-2.4	10	-3	-6.5	5	3	15	i	-1	-1
COc1ccc(OC)c(C2NC(=O)NC(C)=C2C(=O)OC2CCCCC2)c1 (centres undefined)	-5.1	3	2	1.5	-30	.	-0.1	i	-3	16
CC(C)(C)N/N=C/c1c(O)n(-c2ccc(Cl)cn2)c(=O)c2ccccc12	7.8	.	.	.	-13	20	.	.	-5	41
O=C(COC(=O)COc1ccccc1)NCCc1ccccc1	-2.7	1	10	-1.2	1	3	-3.1	i	-1	-5
CC(=O)Oc1c(Sc2ccccc2[N+](=O)[O-])c(C)nn1C(C)(C)C	-4.5	1	-7	-7.3	0	7	-15	i	-20	14
COc1ccc(CNC(=O)C2CCCN2)cc1OC (centres undefined)	2.7	11	5	1.5	-12	-8	1.3	i	-4	9
COc1cc(NC(=O)CSc2nnc(C)s2)cc(OC)c1	-2.3	.	.	.	3	-16	.	.	-5	-7
Cc1cc(C)c2nc(SCc3ccc([N+](=O)[O-])cc3)nc(C)c2c1	5.7	.	.	.	33	-8	.	.	-9	-2
OC(c1ccccc1)(c1ccccc1)C1CCN(C(=S)NCCc2ccccc2)CC1	1.7	-14	-6	0.8	48	-4	2.3	i	5	-9
O=C(c1cccc(C(=O)N2CCC(O)(c3ccccc3)CC2)c1)N1CCC(O)(c2ccccc2)CC1	2.9	0	-2	-0.3	17	-26	-6.9	i	-4	-5
Cc1ccc(S(=O)(=O)N2CCCC2)cc1C(=O)NC1CCCCC1	.	3	4	-3.5	0	1	0.4	i	3	.
